High-throughput results as filed in PubChem.
VDR inhibitor = inhibitors of human vitamin D receptor; P11473; VDR-SRC2-3 peptide fluorescence polarization, 2 h; Potency, µM, inactives show max response, negative = inhibition, usual class: inhibitors; hit rate 0.93% among 400,000; AID 504847; active means well fitted inhibition curve with a large enough effect; inconclusive means small, poorly fitted or top-dose-only effect, or another doubt; inactive means no such curve, though single readings can be large or run the other way; further: series mostly up to about 120 µM
Target sequence (P11473 whole entry, looked up): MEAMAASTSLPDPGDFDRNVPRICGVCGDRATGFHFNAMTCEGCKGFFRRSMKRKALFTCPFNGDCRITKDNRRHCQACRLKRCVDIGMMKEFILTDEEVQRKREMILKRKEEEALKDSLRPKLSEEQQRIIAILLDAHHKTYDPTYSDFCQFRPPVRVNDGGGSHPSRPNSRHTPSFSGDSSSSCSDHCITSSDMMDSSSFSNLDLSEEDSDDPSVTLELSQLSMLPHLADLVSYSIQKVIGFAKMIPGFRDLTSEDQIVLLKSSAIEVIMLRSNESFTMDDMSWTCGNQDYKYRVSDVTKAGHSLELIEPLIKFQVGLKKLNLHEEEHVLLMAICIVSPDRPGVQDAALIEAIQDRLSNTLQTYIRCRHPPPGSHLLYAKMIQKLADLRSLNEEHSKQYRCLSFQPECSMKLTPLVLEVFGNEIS
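The screen uses fluorescence polarization to detect compounds that interfere with recruitment of the SRC2-3 coactivator peptide to VDR; plates are read after 2 h at room temperature.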
* = called active by the depositor; ? = inconclusive; & = joins results of further samples; [ ] = dose if it differs, or a comment. On the % scale 0 is the no-effect control and ±100 the full control effect; potency means the concentration at half of the fitted maximal effect.

SMILES | VDR inhibitor
COc1ccc2nc(NC(=O)CCN3C(=S)NC(C)(C)CC3C)sc2c1 (stereo unspecified) | 2%
Cn1c(=O)c(=O)n(C)c2cc(S(=O)(=O)N3CCCC3C(=O)Nc3ccccc3F)ccc21 (stereo unspecified) | 4%&-16%
CCn1c2ccccc2c2cc(NC(=O)c3cccc([N+](=O)[O-])c3)ccc21 | 6%
Cc1cc(C)c(CN2CCC(n3nccc3NC(=O)C3CCOC3)CC2)cc1C (stereo unspecified) | -26%
COc1ccc(C(=O)Nc2ccc(-c3ccc(NC(=O)c4ccc(OC)cc4)c(OC)c3)cc2OC)cc1 | -7%
CCOc1ccccc1C1C(C(N)=O)=C(C)Nc2nc(-c3ccccc3Cl)nn21 (stereo unspecified) | 21%
O=C(Cn1nnc(-c2ccc(CN3CCOCC3)cc2)n1)N(c1ccccc1)c1ccccc1 | -7%
COc1ccc([N+](=O)[O-])cc1NC(=O)Cc1noc2ccccc12 | 2%
CN=C1CC(C)(C)CC(=O)/C1=C(/O)CCC(=O)NC | -6%
CCN1C(=O)C2C(C1=O)N1C(c3ccccc3)C3C(=O)N(CC)C(=O)C3N1C2c1ccccc1 (stereo unspecified) | 6%
CCOc1ccc(CNCc2c(C(=O)O)c(C)n(Cc3ccc(F)cc3Cl)c2C)cc1 | 23%
O=C(Nc1ccc(N2CCN(Cc3ccccc3)CC2)cc1)c1cccnc1 | -6%
CN(C(=O)c1ccc(NC(=O)Cc2ccc(NC(=O)C3CCCN(C(=O)C4CCCC4)C3)cc2)cc1)C1CC1 (stereo unspecified) | -15%
O=C1NCCCCC1NC1CC(=O)N(c2ccccc2)C1=O (stereo unspecified) | 25%
CC1=NN(c2ccccc2)C(=O)/C1=C/C=C/c1ccccc1 | ?
COc1ccc(C2=C(C)C(N3CCN(C(=O)c4ccco4)CC3)=NS2(=O)=O)cc1 | 2%
O=C(NCC1CCC(C(=O)O)CC1)c1cccnc1 (stereo unspecified) | 10%
CC1=C(C(=O)NCc2ccccc2C)C2(CCCCC2)OC1=O | 10%
CCN1C(=O)[C@H]2[C@H]3CN=C(SCc4ccc(C)cc4)N3[C@@](Cc3ccccc3)(C(=O)OC)[C@H]2C1=O | -9%
Cc1ccc(-c2nnc(NC(=O)c3c(F)cccc3Cl)s2)cc1 | 3%
CC(C)C[C@H](NC(=O)[C@@H](O)[C@H](N)Cc1ccccc1)C(=O)O | -1%&3%&0%&8%
O=C(O)CNC(=O)c1ccc(NC(=O)/C(=C/c2ccccc2)NC(=O)c2ccccc2)cc1 | 26%
COC(=O)[C@]1(C)N[C@H](CN(C)C(=O)C2CCCCC2)[C@@H]2C(=O)N(C)C(=O)[C@@H]21 | 18%
CCOC(=O)/C=c1\s/c(=C(\C#N)C(=O)OCC)n(-c2ccccc2)c1=O | 29%
CCc1ccc2oc(-c3cccc(N)c3)nc2c1 | -13%

Continued.
SMILES | VDR inhibitor
CCOC(=O)c1c(C)[nH]c(C(=O)N(C)CC(=O)Nc2ccc(OC)cc2)c1C | -16%
COc1cc(/C=N/NC(=O)c2cccnc2)ccc1OC(=O)c1ccc2c(c1)OCO2 | 18%
CCOC(=O)c1cccc(S(=O)(=O)N(CCO)Cc2cc3cc(OC)c(OC)cc3[nH]c2=O)c1 | -1%
O=C(NNC(=O)c1ccccc1Br)c1cccc(Cl)c1 | -3%
O=C1C2C(c3ccccc3)CC=CC2[C@H](c2ccoc2)N1Cc1ccccc1 (stereo partly specified) | -9%
COc1ccc(-c2n[nH]c(=S)n2-c2ccc(C)cc2C)cc1 | 0%
CCOc1cc(N2CCOCC2)c(OCC)cc1NC(=O)[C@H](C)N1C(=O)C2CC=CCC2C1=O (stereo partly specified) | 5%
COc1ccc(C2N(c3cc(Cl)ccc3OC)C(=O)C3CCCN32)cc1 (stereo unspecified) | 3%
CCOC(=O)c1cnc2c(Cl)cccc2c1NCCN1CCOCC1 | 12%&-26%
NC(=S)n1[nH]c(-c2ccc([N+](=O)[O-])cc2)c(N=Nc2ccccc2[N+](=O)[O-])c1=O | -22%
O=C(CN1C(=O)NC(Cc2c[nH]c3ccccc23)C1=O)Nc1ccccc1C(F)(F)F (stereo unspecified) | -16%
Cc1ccc(NC(=O)CSc2ccccc2)cc1S(=O)(=O)N1CCCCC1 | 4%
COc1ccc(-c2c3c(=O)n(C)c(=O)n(C)c3cn2N2CCOCC2)cc1 | -14%
CN(C(=O)CSc1nnc(-c2ccc(C(C)(C)C)cc2)n1C)C1CCS(=O)(=O)C1 (stereo unspecified) | 8%
COCc1cc(=O)n2[nH]cc(-c3ccsc3)c2n1 | -8%
CCc1nc(NCCCCCO)c2nnn(Cc3ccccc3F)c2n1 | 8%
CC1(C)CC(=O)C2=C(C1)OC(N)=C([N+](=O)[O-])C2c1cccs1 (stereo unspecified) | -20%
Cc1nc2cc(O)ccc2n1C | 3%
Cc1ccc(CCNc2ccccc2)c[n+]1[O-] | 1%
COc1ccccc1C(=O)N=C1SC2CS(=O)(=O)CC2N1c1ccccc1 (stereo unspecified) | 0%
CCOc1ccc(N/C=C/C(=O)c2ccccc2)cc1 | 1%
COc1cc(CN(C)C(=O)C(=O)c2c[nH]c3ccccc23)ccc1O | -8%
COc1ccc(NC(=O)CSc2nc(C)cs2)cc1 | 10%
c1coc(CNc2ncnc3sc4c(c23)CCCCC4)c1 | 10%
CC(C)(C)NC(=O)NC(=O)COC(=O)c1ccc2c(c1)S(=O)(=O)N=C1CCCCCN12 | -12%

20 structures already listed, arranged by heavy-atom count, rising.
SMILES | VDR inhibitor
Cc1nc2cc(O)ccc2n1C | 3%
Cc1ccc(CCNc2ccccc2)c[n+]1[O-] | 1%
COCc1cc(=O)n2[nH]cc(-c3ccsc3)c2n1 | -8%
COc1ccc(NC(=O)CSc2nc(C)cs2)cc1 | 10%
O=C(NNC(=O)c1ccccc1Br)c1cccc(Cl)c1 | -3%
c1coc(CNc2ncnc3sc4c(c23)CCCCC4)c1 | 10%
COc1ccc(-c2n[nH]c(=S)n2-c2ccc(C)cc2C)cc1 | 0%
Cc1ccc(-c2nnc(NC(=O)c3c(F)cccc3Cl)s2)cc1 | 3%
COc1ccc([N+](=O)[O-])cc1NC(=O)Cc1noc2ccccc12 | 2%
CCOC(=O)c1cnc2c(Cl)cccc2c1NCCN1CCOCC1 | 12%&-26%
COc1ccc2nc(NC(=O)CCN3C(=S)NC(C)(C)CC3C)sc2c1 (stereo unspecified) | 2%
COc1ccc(-c2c3c(=O)n(C)c(=O)n(C)c3cn2N2CCOCC2)cc1 | -14%
O=C1C2C(c3ccccc3)CC=CC2[C@H](c2ccoc2)N1Cc1ccccc1 (stereo partly specified) | -9%
CCOc1ccccc1C1C(C(N)=O)=C(C)Nc2nc(-c3ccccc3Cl)nn21 (stereo unspecified) | 21%
CCOc1ccc(CNCc2c(C(=O)O)c(C)n(Cc3ccc(F)cc3Cl)c2C)cc1 | 23%
Cn1c(=O)c(=O)n(C)c2cc(S(=O)(=O)N3CCCC3C(=O)Nc3ccccc3F)ccc21 (stereo unspecified) | 4%&-16%
O=C(O)CNC(=O)c1ccc(NC(=O)/C(=C/c2ccccc2)NC(=O)c2ccccc2)cc1 | 26%
CCN1C(=O)C2C(C1=O)N1C(c3ccccc3)C3C(=O)N(CC)C(=O)C3N1C2c1ccccc1 (stereo unspecified) | 6%
CCN1C(=O)[C@H]2[C@H]3CN=C(SCc4ccc(C)cc4)N3[C@@](Cc3ccccc3)(C(=O)OC)[C@H]2C1=O | -9%
CN(C(=O)c1ccc(NC(=O)Cc2ccc(NC(=O)C3CCCN(C(=O)C4CCCC4)C3)cc2)cc1)C1CC1 (stereo unspecified) | -15%

Later entries.
SMILES | VDR inhibitor
O=C1CSC2(C(=O)N(Cc3cccc(C(F)(F)F)c3)c3ccccc32)N1c1ccc(F)c(F)c1 (stereo unspecified) | 8%
COc1ccc(-c2nc3sc(CCNS(=O)(=O)c4c(C)cc(C)cc4C)c(C)n3n2)cc1 | 15%
CO[C@H]1C[C@@H]2CC[C@@H](C)[C@@](O)(O2)C(=O)C(=O)N2CCCC[C@H]2C(=O)O[C@H]([C@H](C)C[C@@H]2CC[C@@H](OC(=O)C(C)(CO)CO)[C@H](OC)C2)CC(=O)[C@H](C)/C=C(\C)[C@@H](O)[C@@H](OC)C(=O)[C@H](C)C[C@H](C)/C=C/C=C/C=C/1C | 0%
CC(CCc1ccco1)NC(=O)Cn1nc(Cc2ccncc2)c2ccccc2c1=O (stereo unspecified) | -6%
Cc1c(OCC(=O)N2CCN(c3ccccc3)CC2)ccc2c3c(c(=O)oc12)CCCC3 | 1%
CC(C)CCCC(C)C1CCC2C3CC=C4CC(=O)CC[C@@]4(C)C3CC[C@@]12C (stereo partly specified) | ?
COc1cc(OC)cc(C(=O)NNC(=O)C(CCC(N)=O)NS(=O)(=O)c2ccc(Cl)cc2)c1 (stereo unspecified) | 6%
COc1ccc(OCCCCc2c(C)n[nH]c2C)cc1 | -12%
Cc1nnc(NC(=O)C2CC(=O)N(Cc3ccccc3)C2)s1 (stereo unspecified) | -18%
CC(C)Sc1ncc(Cl)c(C(=O)N(Cc2ccc(F)cc2)C2CCS(=O)(=O)C2)n1 (stereo unspecified) | 20%
O=[N+]([O-])c1cc(C(F)(F)F)cc([N+](=O)[O-])c1NCCNC(=S)Nc1cccc(F)c1 | -23%
O=C(COC(=O)c1ccc2c(c1)OCO2)Nc1cccc(F)c1 | 1%
CC(C)N(c1ccccc1)c1ccc(NC(=O)COC(=O)CCN2C(=O)c3cccc([N+](=O)[O-])c3C2=O)cc1 | ?
Cc1ccc(OCCSc2nc(-c3cccs3)nc3cc(=O)[nH]n23)cc1Cl | 5%
Cc1cc(C)n(Cc2ccc(C(=O)Nc3ccc(Br)cc3C)o2)n1 | -3%
Cc1ccc(CCN2CC(C(=O)NC3CCCC3)CC2=O)cc1 (stereo unspecified) | -10%
Cc1ccccc1C(=O)n1nc(-c2cccnc2)nc1NCc1ccccc1 | 8%
Cc1ccc(-c2nc(CCNC(=O)c3ccc(C)c(C)c3)cs2)cc1 | -2%
O=C(Cc1ccc(F)cc1)Nc1nc(-c2ccc(F)c(F)c2)cs1 | -21%
O=C(O)c1ccccc1OCCN1CCCC1=O | -2%
CCOC(=O)CC1=NN(c2ccccc2)C(=O)C1 | 1%
CC1=C(C#N)C(c2ccc(O)cc2)C(C#N)=C(C)N1 | 9%
O=c1cc(O)sc2ccccc12 | 0%
COc1ccccc1C1=NOC(C)(c2nnc(Cc3ccccc3)o2)C1 (stereo unspecified) | -6%
COC(=O)CCCC(=O)NC1CC(C)(C)Cc2c1cnn2-c1ccc(C)cc1 (stereo unspecified) | -4%

Additional compounds follow.
SMILES | VDR inhibitor
CC(C)=C(NC(=O)c1ccccc1)C(N)=O | -10%
CCOC(=O)Cn1nnnc1CN(Cc1cccs1)Cc1cc2cc(C)cc(C)c2[nH]c1=O | 9%
CCC(=O)Nc1ccc2nc(SCCOc3ccc(C)cc3OC)sc2c1 | 1%
Cc1ccc(NC(=O)CSc2cccc3cccnc23)c(C)c1 | -5%
COc1ccccc1C(=O)N/C(=C/c1ccc2c(c1)OCO2)C(=O)Nc1cccc(C(=O)O)c1 | 0%
N#CCSc1nc2ccccc2c(=O)n1CCCC(=O)NCC1CCCO1 (stereo unspecified) | 5%
Cc1nn(Cc2ccc(C(=O)n3cccn3)o2)c(C)c1Br | -8%
CC(OC(=O)c1ccc(S(=O)(=O)NCc2ccco2)cc1)C(=O)Nc1ncc(Cl)cc1Cl (stereo unspecified) | -19%
Cc1nn(-c2ccccc2)c(Cl)c1C(=O)OC(C)C(=O)Nc1ccc2c(c1)OCO2 (stereo unspecified) | 15%
CC(C)[C@@H](CC(=O)N[C@@H]1CCNC[C@H]1C(=O)N[C@H](CC(=O)N[C@@H](CCC(=O)O)CC(=O)O)Cc1ccccc1)NC(=O)C[C@H](Cc1c[nH]c2ccccc12)NC(=O)[C@@H]1CNCC[C@H]1N | 9%
CCOc1cc(C(=O)NC(C)C2CCCO2)cc(OCC)c1OCC (stereo unspecified) | -11%
O=c1nc(-c2ccccc2)cc(-c2ccccc2)[nH]1 | 11%
Cc1nc(SCC(=O)NCc2ccco2)c2c3c(sc2n1)CCCC3 | 11%
Cc1n[nH]c(C)c1CCc1nc2c3ccccc3nc(SCC(=O)Nc3ccc(F)cc3)n2n1 | -5%
COc1ccc(S(=O)(=O)Nc2ccc(Cl)cn2)c(C)c1C | 4%
CCCCCCOc1ccc(C(=N)N(CCCC)CCCC)c2ccccc12 | ?
CC(=O)c1ccc(S(=O)(=O)N(C)CC(=O)N2CCCCCC2)cc1 | 6%
Cc1ccc(Nc2nc(N3CCOCC3)nc(N3CCOCC3)n2)cc1Cl | -9%
CN1C(=O)c2ccc(C(=O)Nc3nccs3)cc2C1=O | 4%
CCOc1ccc(OCC)c(NS(=O)(=O)c2cc(-c3cnc(C)o3)ccc2OC)c1 | 6%
CN1C(C(=O)NCc2ccco2)CC2Cn3c(nc4ccccc43)C21 (stereo unspecified) | 1%
CCOC(=O)C1CCN(c2nc(C)nc3c2oc2ccccc23)CC1 | 20%
COc1ccc(S(=O)(=O)Nc2ccc(S(=O)(=O)N(C)C)cc2)cc1[N+](=O)[O-] | 3%
Cc1ccc(C(=O)O)cc1NC(=O)CSc1nnc(-c2ccccc2F)n1C1CCCCC1 | -27%
COc1ccc(-c2nsc(NC(=O)c3cccc(OC)c3)n2)cc1 | 4%

Continuation:
SMILES | VDR inhibitor
CC(C)=NOCC(=O)Nn1c(COc2c(C)cccc2C)nc2ccccc2c1=O | -15%
CC(=O)C12OC1CC1C3CCC4=CC(=O)CCC4(C)C3CCC12C (stereo unspecified) | -24%
CCn1c(C(=O)O)c(CC(=O)Nc2ccccc2F)c2ccccc21 | -15%
CCN(CC)CCNC(=O)c1nn(-c2ccc(OC)c(Cl)c2)c(=O)c2c1c1ccccc1n2C | -16%
CC(NC(=S)NNS(=O)(=O)c1cccc([N+](=O)[O-])c1)c1ccccc1 (stereo unspecified) | 104%[activator]
CCOC(=O)c1c(NC(=O)CSc2nc3cccnc3n2C)sc(C(C)=O)c1C | -10%

The list is partial; rates above refer to the full screens.
